Eya2 phos inh: qHTS Assay for Inhibitors of the Phosphatase Activity of Eya2 | recombinant Eya2, OMFP fluorescence dephosphorylation (OMFP is methylfluorescein phosphate) | 0.006% of 330,000 active | Potency, µM (top dose mostly 76.9 µM), for the others: at the top dose activity, negative = inhibition, hits mostly inhibitors | Protein phosphatase EYA2 (Homo sapiens), O00167; note: potency is the fitted concentration of half-maximal effect; % is set by controls: 0 for no effect and ±100 for the full control effect
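Eya2 protein (added as 0.2 uM solution) was preincubated with compound for 10 min at ambient temperature in 50 mM HEPES pH 7.5, 50 mM NaCl, 5 uM MgCl2, 0.05% BSA, 1 mM DTT. OMFP (added at 50 uM) then reacted 10 min; fluorescence read at 485/525 nm.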
ASM inhibitor: Inhibitors of Secretory Acid Sphingomyelinase (S-ASM): qHTS; Sphingomyelin phosphodiesterase (Homo sapiens), P17405; placental ASM, HMU-PC fluorogenic substrate, 60 min; Potency, µM (doses to about 57.5 µM), inactives show at the top dose activity change, negative = inhibition, hits mostly inhibitors; 0.006% of 340,000 active; AID 504937, 2011; note: potency is the fitted concentration of half-maximal effect
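HMU-PC0 cleavage (9 uM final) by human placental ASM, 60 min at 37 °C following 10 min compound exposure at RT; stopped at pH 10, fluorescence Ex 386/Em 447 nm.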
MBNL1 CUG block: qHTS Assay for Inhibitors of MBNL1-poly(CUG) RNA binding | Muscleblind-like protein 1 (Homo sapiens), Q9NR56 | TR-FRET MBNL1-His/biotin-(CUG)12 binding, 665/545 ratio | Potency, µM (top dose mostly 57.5 µM), for inactives: at the top dose activity change, negative = inhibition, most hits filed as inhibitors | 0.036% of 280,000 active; active = well fitted inhibition curve with a large enough effect in the signal ratio, with a control signal flat, not every such curve was filed as active; inconclusive = small, poorly fitted or top-dose-only effect, or effect the other way, or a change in a side signal; inactive = no such curve, though single readings can be large or run the other way; the % refers to the signal ratio; note: potency is the fitted concentration of half-maximal effect; % is set by controls: 0 for no effect and ±100 for the full control effect
Target sequence (Q9NR56 whole entry, looked up): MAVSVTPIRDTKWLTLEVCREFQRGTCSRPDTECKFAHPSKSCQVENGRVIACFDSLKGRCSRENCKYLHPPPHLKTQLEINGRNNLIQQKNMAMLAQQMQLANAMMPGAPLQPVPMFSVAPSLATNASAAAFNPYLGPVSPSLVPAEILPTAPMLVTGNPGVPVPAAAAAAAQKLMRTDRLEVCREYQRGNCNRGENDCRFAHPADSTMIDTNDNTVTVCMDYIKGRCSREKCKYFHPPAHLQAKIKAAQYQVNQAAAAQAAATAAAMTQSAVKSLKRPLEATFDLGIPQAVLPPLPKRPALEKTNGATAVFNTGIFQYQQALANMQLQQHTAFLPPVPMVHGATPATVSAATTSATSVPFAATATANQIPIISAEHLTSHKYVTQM
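TR-FRET readout: Ex 340 nm, 665/545 nm emission ratio, normalized to buffer-only (basal) and MBNL1-(CUG)12 controls. Complex of MBNL1-His with Biotin-(CUG)12, compounds 92 nM–58 uM, incubated 60 min at room temperature.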
TSHR antag: Antagonists of the Thyroid Stimulating Hormone Receptor: HTS campaign | TSHR-expressing cells, TSH-stimulated cAMP HTRF, 2 h; stronger effect = lower value | 0.2% of 330,000 active | activity change, negative = inhibition, % at 11.5 µM | Thyrotropin receptor (Homo sapiens), P16473;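 active = activity change below a set negative limit, meaning inhibition stronger than a set level, cut at about -70% in these data; inconclusive = activity change between two set negative limits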; note: % is set by controls: 0 for no effect and ±100 for the full control effect
Target sequence (P16473 whole entry, looked up): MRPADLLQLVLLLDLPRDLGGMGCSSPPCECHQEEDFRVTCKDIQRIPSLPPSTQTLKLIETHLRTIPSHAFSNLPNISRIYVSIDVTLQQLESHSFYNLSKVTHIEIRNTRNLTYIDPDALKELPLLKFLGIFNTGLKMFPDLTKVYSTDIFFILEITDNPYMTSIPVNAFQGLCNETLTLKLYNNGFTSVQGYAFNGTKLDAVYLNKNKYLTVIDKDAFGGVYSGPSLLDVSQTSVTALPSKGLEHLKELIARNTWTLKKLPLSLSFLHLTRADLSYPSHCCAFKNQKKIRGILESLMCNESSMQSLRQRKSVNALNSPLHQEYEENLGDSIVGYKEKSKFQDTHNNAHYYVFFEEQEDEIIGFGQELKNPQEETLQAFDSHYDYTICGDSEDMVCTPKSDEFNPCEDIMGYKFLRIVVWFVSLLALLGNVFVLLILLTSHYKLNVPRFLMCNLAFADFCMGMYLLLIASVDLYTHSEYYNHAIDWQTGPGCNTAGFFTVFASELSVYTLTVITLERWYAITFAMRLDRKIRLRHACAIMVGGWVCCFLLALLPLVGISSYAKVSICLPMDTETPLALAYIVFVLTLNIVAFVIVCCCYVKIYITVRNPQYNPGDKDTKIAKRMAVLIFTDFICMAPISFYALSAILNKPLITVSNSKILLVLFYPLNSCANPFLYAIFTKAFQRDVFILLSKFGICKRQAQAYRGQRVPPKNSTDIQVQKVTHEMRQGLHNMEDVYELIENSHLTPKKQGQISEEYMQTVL
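Inhibition of cAMP made by TSHR-expressing cells under TSH stimulation (4nM final, EC80; 2 h, 37 deg C) is quantified with a one-step lysis HTRF kit, anti-cAMP cryptate versus cAMP-d2.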
Menin MLL FP TR: qHTS Assay for Inhibitors Targeting the Menin-MLL Interaction in MLL Related Leukemias: Competition With Texas Red Labeled MLL-derived Mutant Peptide. 0.23% of 270,000 active. O00255. Menin + Texas Red MLL mutant peptide, fluorescence polarization. Potency, µM (top dose mostly 61.6 µM), for the others: at the top dose FP activity change, negative = inhibition, usual class: inhibitors; active = well fitted inhibition curve with a large enough effect in the polarisation, with a control signal flat, not every such curve was filed as active; inconclusive = small, poorly fitted or top-dose-only effect, or effect the other way, or a change in a side signal; inactive = no such curve, though single readings can be large or run the other way; the % refers to the polarisation; note: potency is the fitted concentration of half-maximal effect; % of control where 0% means no effect; many of its hits are not listed in these tables
Mito fusion yeast: qHTS Assay for Small Molecule Inhibitors of Mitochondrial Division or Activators of Mitochondrial Fusion. AID 485298, 2010. Potency, µM (titrated, usually from 46.1 µM), for the others: top-dose growth rescue (activation), actives largely listed as activators. 0.23% of 320,000 active. S. cerevisiae fusion-defective mutant growth rescue, CellTiterGlo 48 h;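 note: potency is the fitted concentration of half-maximal effect; % of control where 0% means no effect; nearly all actives have a fitted effect of over 45% in size; temperature-sensitive fusion mutants such as fzo1-1 at 37 °C on non-fermentable ethanol glycerol medium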
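Temperature-sensitive fusion-defective S. cerevisiae (e.g. fzo1-1, mgm1-5) were grown with compound in YPEG medium (3% ethanol, 3% glycerol) for 48 hours at 37C. Growth rescue was measured as viability by CellTiterGlo luminescence after 10 minutes at ambient.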
USP2a block: qHTS Assay for Inhibitors of Ubiquitin-specific Protease USP2a Using CHOP2 as the Reporter | Ubiquitin carboxyl-terminal hydrolase 2 (Homo sapiens), O75604 | USP2 core, Ub-CHOP2 coupled fluorogenic reporter, 485/531 | Potency, µM (doses to about 38.3 µM), for inactives: at the top dose activity change, negative = inhibition, actives largely listed as inhibitors | 0.01% of 330,000 active | AID 463254, 2010;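 note: potency is the fitted concentration of half-maximal effect; plate controls were DMSO wells for no effect and full inhibition by NEM control for full effect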
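USP2 core (10nM final) preincubated 30min RT with compound in 20mM Tris-HCl pH 8.0, 2mM CaCl2, 2mM beta-mercaptoethanol, 0.05% CHAPS; 25nM Ub-CHOP2 plus 25nM reporter substrate added, fluorescence (Ex485/Em531) read after 60min.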
GALK inh: qHTS Assay for Inhibitors of Human Galactokinase (GALK). P51570. Purified GALK, Kinase-Glo residual ATP luminescence. Potency, µM (highest dose often 57.5 µM), for the others: at the highest dose activity change, negative = inhibition, hits mostly inhibitors. 0.007% of 270,000 active; note: potency is the fitted concentration of half-maximal effect; % is set by controls: 0 for no effect and ±100 for the full control effect
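Compounds were pin-transferred into ATP buffer (35 uM final), then GALK plus galactose (5 nM, 100 uM final) was added. After 1 h at room temperature, Kinase-Glo Plus was added and luminescence read after 10 min.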
PKM2 activator: qHTS Assay for Activators of Human Muscle isoform 2 Pyruvate Kinase | Pyruvate kinase PKM (Homo sapiens), P14618 | purified PKM2, Kinase-Glo ATP luminescence, activation; response scale: 0% is enzyme alone, no compound | Potency, µM (titrated, usually from 57.5 µM), inactives show top-dose activation, usual class: activators | 0.34% of 260,000 active; note: potency is the fitted concentration of half-maximal effect; % is set by controls: 0 for no effect and ±100 for the full control effect; nearly all actives have a fitted effect of over 55% in size
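Purified hPK-M2 (>95% pure) converted ADP (0.1 mM final) to ATP with 0.5 mM PEP in 50 mM imidazole pH7.2, KCl, MgCl2, Tween 20, BSA; 1 h at room temperature. ATP detected by Kinase-Glo luminescence.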
Chronic BCR inh: qHTS Assay to Find Inhibitors of Chronic Active B-Cell Receptor Signaling; Potency, µM (doses to about 46.1 µM), for the others: at the top dose ratio change, negative = lower green/red ratio, usual class: inhibitors; AID 493014, 2011; 0.05% of 340,000 active; ABC-DLBCL IkBa-CBG/CBR reporter, luminescence ratio, 4 h; active = well fitted inhibition curve with a large enough effect in the signal ratio, with a control signal flat, not every such curve was filed as active; inconclusive = small, poorly fitted or top-dose-only effect, or effect the other way, or a change in a side signal; the % refers to the signal ratio;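 note: potency is the fitted concentration of half-maximal effect; plate controls were basal doxycycline-induced cells for no effect and cells given 10 µM MG132 for full effect; MG132 reads +100%, hits lower the ratio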
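TMD8 ABC-DLBCL cells carrying doxycycline-inducible green luciferase fused to IkappaBalpha plus unfused red luciferase were exposed to compounds (up to 46 uM) for 4 hrs at 37C. Activity came from the overlap-corrected green/red luminescence ratio.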
Starred values were filed as active, the others as inactive; ? = inconclusive; . = not tested or not shown; & = joins results of further samples; [ ] = another dose, or the depositor's remark. Unless noted, calls come from the whole dose curve; as a rule, active = well fitted curve in the direction sought with a large enough effect; inconclusive = small, poorly fitted or top-dose-only effect, or another doubt; inactive = no such curve, though single readings can be large; an effect the other way counts as inactive or inconclusive. These rows are one share of the data. The share of hits here may be higher or lower than overall.

canonical_smiles	Menin MLL FP TR	ASM inhibitor	Eya2 phos inh	Chronic BCR inh	Mito fusion yeast	TSHR antag	USP2a block	GALK inh	MBNL1 CUG block	PKM2 activator
Cc1ccc(NC(=O)CN(C)C(=O)CNC(=O)c2cccs2)cc1	.	0%	-8%	-15%	-3%	0	0%	.	.	.
CCC(C)C(NC(=O)OC(C)(C)C)C(=O)NCc1ccco1 (configuration not stated)	19%	5%	3%[15.4 µM]	2%	4%	-3	2%	1%	-23%	-2%
O=C(O)COCCN1CCN([C@@H](c2ccccc2)c2ccc(Cl)cc2)CC1	3%[24.8 µM]	.	.	.	.	.	.	.	.	.
COc1ccc(C(=O)Nc2ccc(N3CCCC3)cc2)cc1OC	?	-4%	-8%	?	-8%	-2	?	-1%	?	-12%[11.5 µM]
O=C(c1nnsc1S(=O)c1ccc(Cl)cc1)N1CCOCC1 (configuration not stated)	11%	-2%	-2%	?	-3%	-11	0%	10%	-2%	.
COc1ccc(Cl)cc1NC(=O)C[n+]1cccc(C)c1	-5%	-1%	6%	?	0%	22	-1%	-1%	-1%	.
CCC(=O)OCC(=O)C1(OC(=O)CC)C(C)CC2C3CCC4=CC(=O)C=CC4(C)C3(Cl)C(O)CC21C (configuration not stated)	-3%	.	.	.	.	.	.	.	.	.
Cc1ccc(NC(=O)Cn2nc(C)c3ccccc3c2=O)cc1F	0%	0%	-15%	2%	6%	-8	?	5%	4%	-2%
Cc1ccnc(SCC(=O)Nc2sc3c(c2C#N)CCC(C(C)(C)C)C3)n1 (configuration not stated)	4%	-1%	21%	-1%	1%	8	0%	1%	-1%	1%
Cc1cc(/C=C\c2ccc3cc(N(C)C)ccc3[n+]2C)c(C)n1-c1ccccc1	.	?	-12%	?	-33%[inhibitor]	-38	-26%	.	.	.
COc1cccc(OCc2cc(C(=O)N(C)CCOc3ccc(C)cc3)no2)c1	.	-15%	-12%	6%	2%	-14	0%	-6%	-6%	.
CCOc1cc(C2C(C(=O)c3ccco3)=C(O)C(=O)N2CC2CCCO2)ccc1O (configuration not stated)	-1%	-3%	23%	7%	-2%	-8	-1%	-3%	9%	0%
O=C(Nc1cccnc1)c1cccc(F)c1	-5%	-1%	1%	0%	-2%	1	1%	2%	.	-7%
O=C(Nc1nc2ccccc2c(=O)s1)c1ccco1	.	0%	-25%	?	2%	25	2%	-1%	6%	-4%
COc1ccc(C(=O)NCC(=O)N2CCCC(C(F)(F)F)C2)cc1OC (configuration not stated)	.	3%	2%	-2%	-2%	4	-1%	.	.	.
O=C(NCc1ccc(F)cc1)C(=O)c1cn(CC(=O)N2CCCC2)c2ccccc12	.	-4%	1%	?	-2%	36	2%	-5%	13%	-3%
CC(=O)O[C@@H]1C(=O)[C@@]2(C)[C@H](O)C[C@H]3OC[C@]3(OC(C)=O)[C@@H]2[C@H](OC(=O)c2ccccc2)[C@@]2(O)C[C@H](OC(=O)[C@@H](O)[C@@H](NC(=O)c3ccccc3)c3ccccc3)C(C)=C1C2(C)C (stereo in doubt)	8%[24.8 µM]	.	.	.	.	.	.	.	.	.
CCCC(O)(CCN1CCCCC1)c1ccc(OCC)cc1 (configuration not stated)	-1%[11.7 µM]	3%	9%	0%	1%	2	-1%	1%	-1%	-2%
Cc1cc(C)n(CC(=O)N/N=C/c2cc(Br)cc([N+](=O)[O-])c2O)n1	?	-2%	2%	6%	2%	-5	0%	1%	2%	0%
COc1ccc(CN2CCN(Cc3nc4ccccc4s3)CC2CCO)c(C)c1C (configuration not stated)	-12%	-1%	-8%	?	-19%	-5	-7%	-1%	5%	3%
O=C(Oc1ccccc1)c1c(Cl)cccc1P(=O)(O)O	0%	-2%	-1%	0%	-2%	-4	5%	4%	5%	2%
Cc1ccc(O)c(C(CCN(C(C)C)C(C)C)c2ccccc2)c1 (configuration not stated)	0%	.	.	.	.	.	.	.	.	.
Cc1ccc(NCC(O)C(O)C(O)CO)c(N=Nc2ccccc2)c1C (configuration not stated)	.	-3%	5%	8%	-24%	-2	-10%	1%	?	1%
CCc1nnc(NS(=O)(=O)c2ccc(NS(=O)(=O)c3ccccc3[N+](=O)[O-])cc2)s1	2%	-1%	-14%	0%	15%	-4	1%	.	-3%	.
CC(=O)[C@H]1CC[C@@H]2[C@H]3CC=C4C[C@@H](O)CC[C@]4(C)[C@H]3CC[C@]12C	2%[24.8 µM]	.	.	.	.	.	.	.	.	.
CCc1ccc(OCC(=O)NC(=S)Nc2ccc(C(=O)O)cc2)cc1	.	1%	-11%	-8%	4%	2	1%	-3%	.	-2%
CC(=O)O[C@]1(C(C)=O)CCC2C3C=C(C)C4=CC(=O)CC[C@]4(C)C3CC[C@@]21C (some centres not stated)	?	1%	3%	0%	8%	-2	-1%	0%	5%	.
O=C(O)c1ccc2c(c1)CC(c1ccccc1)OC2=O (configuration not stated)	-3%	-1%	-10%	0%	-3%	-17	-1%	-2%	3%	2%
CCN[C@H]1C[C@H](C)S(=O)(=O)c2sc(S(N)(=O)=O)cc21	.	6%	14%	-1%	6%	-5	0%	.	.	.
COc1ccccc1OC[C@H](O)CO	-1%	-8%	4%	-23%	0%	9	0%	.	-2%	-12%

Random excerpt: 2 compounds from above.
canonical_smiles	Menin MLL FP TR	ASM inhibitor	Eya2 phos inh	Chronic BCR inh	Mito fusion yeast	TSHR antag	USP2a block	GALK inh	MBNL1 CUG block	PKM2 activator
CCc1nnc(NS(=O)(=O)c2ccc(NS(=O)(=O)c3ccccc3[N+](=O)[O-])cc2)s1	2%	-1%	-14%	0%	15%	-4	1%	.	-3%	.
O=C(NCc1ccc(F)cc1)C(=O)c1cn(CC(=O)N2CCCC2)c2ccccc12	.	-4%	1%	?	-2%	36	2%	-5%	13%	-3%

Additional structures follow:
canonical_smiles	Menin MLL FP TR	ASM inhibitor	Eya2 phos inh	Chronic BCR inh	Mito fusion yeast	TSHR antag	USP2a block	GALK inh	MBNL1 CUG block	PKM2 activator
COC(CNC(=O)c1ccc(N2CCCC2=O)cc1)OC	-5%	6%	-11%	-7%	0%	3	1%	1%	3%	-15%
COc1ccc2cc(CN(CCO)C(=O)c3ccc(Br)cc3)c(=O)[nH]c2c1	-1%	-1%	-1%	-7%	-5%	-6	1%	-1%	-1%	1%
CC1(C)S[C@@H]2[C@H](NC(=O)[C@H](N)c3ccc(O)cc3)C(=O)N2[C@H]1C(=O)O	14%	-3%	2%	?	1%	33	1%	.	10%	0%
O=C(N[C@H](CO)[C@H](O)c1ccc([N+](=O)[O-])cc1)C(Cl)Cl	-2%[24.8 µM]	5%	.	.	.	.	.	.	.	.
Cc1cc(C)n(C(=O)C(C)n2nc([N+](=O)[O-])c(Br)c2C)n1 (configuration not stated)	3%	3%	-3%	0%	0%	5	2%	-3%	.	-5%
COc1ccccc1NC(=O)CSc1nccc(=O)[nH]1	-16%	2%	7%	1%	-7%	-9	-2%	0%	0%	-3%
CC(=O)SC1CC2=CC(=O)CCC2(C)C2CCC3(C)C(CCC34CCC(=O)O4)C12 (configuration not stated)	-18%	0%	-10%	-7%	-2%	20	7%	-1%	-8%	1%
CO/N=C(\C(=O)N[C@@H]1C(=O)N2C(C(=O)O)=C(COC(C)=O)CS[C@@H]12)c1csc(N)n1	-10%[24.8 µM]	.	.	.	.	.	.	.	.	.
Cc1ccc(Cl)c(OCC(=O)NC2CCN(Cc3ccccc3)CC2)c1	.	0%	-23%	1%	?	1	2%	.	.	.
CC(=O)O[C@]1(C(C)=O)CC[C@H]2[C@@H]3C=C(C)C4=CC(=O)CC[C@]4(C)[C@H]3CC[C@@]21C	-4%&-28%	-1%	1%&1%	?	13%&-1%	-16&-12	4%&0%	3%&7%	-4%&79%	3%&-2%

Screening results from PubChem.
